# Polio RdRp inh – inhibitors of poliovirus RNA polymerase binding and polymerization. P03300. poliovirus polymerase elongation, fluorescence polarization; active compounds read low. % elongation, % (compound at 16.7 µg/mL). hit rate 0.66% among 150,000; in the data active means % elongation below about 90%; further: some results filed as inactive read as strong as hits
# Target sequence (P03300 1749-2209 limits assumed): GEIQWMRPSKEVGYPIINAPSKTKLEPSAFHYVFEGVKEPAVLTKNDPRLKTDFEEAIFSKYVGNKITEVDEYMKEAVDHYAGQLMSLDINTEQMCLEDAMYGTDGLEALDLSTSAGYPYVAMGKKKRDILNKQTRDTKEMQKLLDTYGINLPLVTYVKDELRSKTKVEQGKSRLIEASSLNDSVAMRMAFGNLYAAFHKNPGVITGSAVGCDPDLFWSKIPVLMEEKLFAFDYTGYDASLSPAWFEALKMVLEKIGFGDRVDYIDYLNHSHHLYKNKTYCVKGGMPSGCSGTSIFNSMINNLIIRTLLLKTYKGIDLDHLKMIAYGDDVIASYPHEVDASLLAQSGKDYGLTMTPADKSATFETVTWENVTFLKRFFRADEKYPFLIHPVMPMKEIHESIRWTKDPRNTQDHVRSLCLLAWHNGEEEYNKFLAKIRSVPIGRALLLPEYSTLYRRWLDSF
# Polio RdRp inh intensity – recorded beside Polio RdRp inh, whose call it bears; % elongation; measured here: total intensity read-out; formula for this scale not given here;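 total fluorescence in place of polarization; lower means less elongation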
# * hit, by the source's call. Not all compounds are listed, so the mix of outcomes need not match the whole.
SMILES,Polio RdRp inh,Polio RdRp inh intensity
CCc1ccc(NC(=O)C(=O)NCCc2csc(-c3cccc(F)c3)n2)cc1,114,109
COc1ccc(C(C)=O)cc1CSc1nc(Nc2ccc(F)c(F)c2)c2ccccc2n1,108,114
CCC(Sc1nc2nccnc2c(=O)n1Cc1ccc(Cl)cc1)C(=O)NC1CCCCC1 (configuration not stated),108,104
CCN1CCN(Cc2nc3cc(NC(=O)c4ccccc4[N+](=O)[O-])ccc3n2CC)CC1,99,99
CCN(CC)C(=O)Cn1c(=O)n(CCCCCC(=O)NCc2ccc3c(c2)OCO3)c(=O)c2sccc21,110,109
COc1ccc(Nc2ncnc3c2c(-c2ccccc2)cn3-c2ccc(C)c(Cl)c2)cc1OC,109,116
Cc1cccc(NC(=O)C2CCN(S(=O)(=O)c3ccc4[nH]c5c(c4c3)CCCCC5)CC2)c1,111,107
COc1ccccc1CNC(=O)c1cc2c(=O)oc3ccc(C)cc3c2s1,106,106
Cc1cccc2sc(N(Cc3cccnc3)C(=O)CCOc3ccccc3)nc12,109,108
CCn1c(C(=O)NCc2ccc(C)cc2)cc2sc(Cl)cc21,114,115
CC(=O)Nc1nonc1-c1nnc(SCc2ccc(Cl)cc2)n1C,109,108
CCN(CC)CCNC(=O)c1nn(C)c2c1CS(=O)(=O)c1ccccc1-2,103,107
COC(=O)c1ccc(OCC2c3cc(OC)c(OC)cc3CCN2C(=O)c2cccc(C)c2)cc1 (configuration not stated),101,104
CC(C)CC(=O)NCC(c1ccc2c(c1)OCO2)N1CCN(c2ccc(F)cc2)CC1 (configuration not stated),121,123
O=c1cc(COc2cccc(C(F)(F)F)c2)nc2sc3c(n12)CCCC3,107,112
CCc1ccccc1NC(=O)c1cc(-c2ccc(OC)cc2)on1,101,101
CC(C)c1nc2sc3c(N4CCCCC4)ncnc3c2c2c1CCCC2,105,112
CCCCOc1ccc(C(=O)NCc2cn3cccc(C)c3n2)cc1,108,102
Cc1cccc(OCc2ccc(-c3nc(C#N)c(NCc4cccnc4)o3)o2)c1,110,109
CCOc1cc(CNc2ccc(O)cc2)ccc1OCc1ccc(Cl)cc1,80*,83*
COc1cccc(CNC(=O)C(C)n2ccc3cc(S(=O)(=O)N4CCCCCC4)ccc32)c1 (configuration not stated),101,110
COc1ccccc1NC(=O)CCn1c(=O)oc2cc(Cl)ccc21,109,110
CCOc1cc(CNc2ccc(C(=O)O)cc2)ccc1OCc1ccccc1,101,100
O=C(NCCc1ccc(F)cc1)C(=O)NCC(c1cccs1)S(=O)(=O)c1ccc(F)cc1 (configuration not stated),110,115
Cn1cc(S(=O)(=O)N2CCCCCC2)cc1C(=O)N1CCN(c2ccccc2F)CC1,106,98
O=c1cc(-c2ccccc2)n2c(SCc3ccc(Br)cc3)nnc2[nH]1,103,94
O=c1oc2ccccc2cc1-c1nc(-c2cccc(Cl)c2)cs1,108,117
Cc1ccc(Nc2cc(C)nc3nc(Cc4ccc(Cl)cc4)nn23)cc1,110,114
COc1ccc(C(=O)Nc2cccc(OCc3cc(=O)n4c5c(sc4n3)CCCC5)c2)cc1OC,98,102
O=C(CCS(=O)(=O)c1cccc2nonc12)Nc1cccc(F)c1,106,108
Oc1c(C(c2ccccc2F)N2CCCCC2)sc2nc(-c3ccco3)nn12 (configuration not stated),106,106
CCOc1ccc(Nc2oc(/C=C/c3cc(OC)c(OC)c(OC)c3)nc2C#N)cc1,115,118
COc1ccc(S(=O)(=O)NCC(c2ccc(N(C)C)cc2)N2CCCC2)cc1F (configuration not stated),109,113
CCCCOc1ccc(-c2nonc2NC(=O)c2ccco2)cc1,103,108
Cc1ccc(Cl)cc1N1CCN(CCCNC(=O)c2nnc(Cc3cccc(Cl)c3)o2)CC1,102,106
COc1ccc(OC)c(S(=O)(=O)N2Cc3ccccc3CC2C(=O)Nc2ccc(C)cc2C)c1 (configuration not stated),117,115
COCCNC(=O)CCCn1c(SCc2ccccc2C)nc2c(sc3ccccc32)c1=O,107,108
CCc1ccc(NC(=O)C2CCN(c3nnc(-n4c(C)ccc4C)s3)CC2)cc1,100,104
CCOC(=O)c1ccccc1NC(=O)CN1C(=O)CC(c2ccccc2)Sc2ccccc21 (configuration not stated),106,108
CCn1c(=O)c2cc(C(=O)N(C)c3cc(C)ccc3C)sc2c2ccccc21,103,97
Cc1c(CCC(=O)NCc2cccc(Cl)c2)c(=O)oc2c(C)c(O)ccc12,108,115
Cc1ccc(-c2nc(-c3cccs3)c(-c3cccs3)[nH]2)cc1,113,114
Cc1ccc2oc(C(=O)Nc3ccc(S(=O)(=O)N(C)c4ccccc4)cc3)cc(=O)c2c1,100,92
CCOc1ccccc1NC(=O)CSc1nc2c(oc3ccccc32)c(=O)n1C(C)C,104,108
COc1ccccc1N(CC(=O)Nc1ccccc1F)S(C)(=O)=O,107,109
CCC1CCCCN1CCCNC(=O)c1ccc2c(c1)N(Cc1cccc(Cl)c1)C(=O)c1ccccc1S2(=O)=O (configuration not stated),105,110
CCc1ccccc1NC(=O)Cn1nnc2sc3c(c2c1=O)CCC(C(C)(C)C)C3 (configuration not stated),103,105
CCOc1ccc(CCNC(=O)Cn2ccc3cc(S(=O)(=O)N4CCCCCC4)ccc32)cc1,105,96
O=S(=O)(NCCc1csc(-c2ccc(F)cc2)n1)c1ccc(Cl)cc1,111,116
Cc1ccc(-n2ncc3c(NCCC4=CCCCC4)ncnc32)cc1,103,106
COc1ccccc1CNC(=O)C(=O)NCC(c1ccc2c(c1)OCO2)N1CCOCC1 (configuration not stated),111,112
CCCc1nccn1S(=O)(=O)c1cc(Br)ccc1OC,108,111
Cc1ccc(S(=O)(=O)c2nc(-c3cccs3)oc2SCC(=O)Nc2cc(C)cc(C)c2)cc1,104,106
COc1ccccc1-c1nnc(SCCOc2ccccc2C)o1,106,110
O=C(NCCS(=O)(=O)N1CCN(c2ccccc2F)CC1)C(c1ccccc1)c1ccccc1,108,105
CCOC(=O)c1ccccc1NC(=O)COc1cc(=O)n(CC)c2ccccc12,104,104
CC(=O)c1cc(-c2ccccc2)n(CCC(=O)NC2CCCCC2)c1C,103,105
Cc1ccc(C(=O)NCc2ccc(F)cc2)cc1NC(=O)c1nsc2ccccc12,106,108
O=C(Nc1ccc(-c2nc3cc(NC(=O)c4ccccc4F)ccc3o2)cc1)c1ccccc1F,101,102
Cc1ccc(C2C=C(c3ccccc3)Nc3nc(NS(=O)(=O)c4ccccc4)nn32)cc1 (configuration not stated),96,137
# Other records follow:
SMILES,Polio RdRp inh,Polio RdRp inh intensity
CCOC(=O)c1c(C)[nH]c(C)c1S(=O)(=O)N1CCC(C(=O)NCc2cccc(OC)c2)CC1,113,113
CCc1ccc(N(CC)C(=O)CCn2cnc3onc(-c4ccc(F)cc4)c3c2=O)cc1,106,109
O=S(=O)(Nc1cccc(-c2ccc(N3CCCCCC3)nn2)c1)c1ccc(F)cc1,112,113
Cc1ccc(CNC(=O)CSc2ccc(-c3sc(-c4ccccc4)nc3C)nn2)cc1,103,99
CC1CCc2c(sc3nc(-c4cc5ccccc5oc4=O)nc(Cl)c23)C1 (configuration not stated),110,113
COc1ccc(OC)c(NC(=O)CCNS(=O)(=O)c2ccc3c(c2)oc(=O)n3C)c1,104,110
Cc1cc(C)n2c(SCCC(C)C)nnc2n1,102,105
COc1cc(-c2nnc(SCCOc3ccccc3)o2)cc(OC)c1OC,106,106
COc1ccc(-n2c(=O)c3ccc(C(=O)NCc4ccc(C)cc4)cc3n(Cc3cccc(Cl)c3)c2=O)cc1,104,104
CC(Sc1nc2c([nH]c3ccccc32)c(=O)n1-c1ccccc1)c1ccccc1 (configuration not stated),111,111
COC(=O)c1cc(S(=O)(=O)NCC2CCN(Cc3cccc(F)c3)CC2)cn1C,106,104
COc1ccc(S(=O)(=O)Cc2ccc(C(=O)N3CCN(c4cc(C)ccc4C)CC3)o2)cc1,103,101
COc1cc(-c2cc3n(C)c(C)c(CCC(=O)NCc4ccccc4)c(=O)n3n2)cc(OC)c1OC,108,101
CCc1ccccc1NC(=O)Cn1c(=O)n(CCc2ccccc2)c(=O)c2ccccc21,108,112
Fc1ccc2[nH]c(-c3cccs3)cc2c1,119,124
Cc1ccc(NC(=O)CSc2nnc(C)s2)c(C)c1,105,105
O=C(Cc1ccc(F)cc1)NCc1nc2cccnc2n1Cc1ccc(F)cc1,108,111
Cc1cc(F)ccc1NC(=O)CCS(=O)(=O)c1ccc2c(c1)CC(C)N2C(=O)C1CC1 (configuration not stated),110,115
Cc1csc2nc(COC(=O)c3ccccc3NC(=O)c3ccc(F)cc3)cc(=O)n12,107,109
CC(=O)Nc1ccc(NC(=O)C2CCCN(S(=O)(=O)c3ccc4c(c3)CCCC(=O)N4)C2)cc1 (configuration not stated),106,112
CCOc1ccc(NC(=O)c2cc3cc4ccc(C)cc4nc3o2)cc1,110,111
Cc1nn2c(=O)cc(COc3ccc(/C=C(\C#N)C(=O)Nc4ccc(F)cc4)cc3)nc2s1,103,103
COc1ccc(NC(=O)Cn2c(=O)c3ccccc3n3nncc23)c(OC)c1,105,106
COc1ccc(-n2cc(-c3ccc4c(c3)OCO4)n(CC(=O)Nc3cccc(C)c3C)c2=O)c(OC)c1,111,113
COc1ccc(C2=C(C)C(=O)N(Cc3ccc(C(=O)NCc4ccccc4C)cc3)S2(=O)=O)cc1,109,111
COc1ccc(OC)c(NC(=O)CSc2c3c(nc4cc(Cl)ccc24)CCCC3)c1,106,106
Cc1cccc(N2CCN(C(=O)C3CCN(S(=O)(=O)c4c(C)noc4C)CC3)CC2)c1C,110,113
CCOC(=O)C1CCN(CCC(=O)Nc2ccc(Br)c(C)c2)CC1,108,107
COc1ccc(CCNC(=O)CSc2ncc3c(n2)-c2cc(Cl)ccc2N(Cc2ccccc2)S3(=O)=O)cc1OC,107,112
COc1ccc(CCNC(=O)c2c(C)nn(-c3ccc(F)cc3)c2-n2cccc2)c(OC)c1OC,112,113
COC(=O)c1cnn(-c2ccc(C(=O)Nc3cccc(C(C)=O)c3)cc2)c1N,106,112
CCOc1ccc(NC(=O)CSC2=Nc3ccccc3C3=NC(CC(=O)NCc4ccc5c(c4)OCO5)C(=O)N23)cc1 (configuration not stated),108,103
COc1ccc(C(=O)CC2(O)C(=O)N(CCc3ccccc3)c3ccc(Br)cc32)cc1OC (configuration not stated),110,110
Cc1cccc(N2CCN(S(=O)(=O)c3ccc4oc(=O)c5ncn(C)c5c4c3)CC2)c1C,110,109
COc1ccc(N2CCN(CCCNC(=O)Nc3ccccc3Cl)CC2)cc1,102,96
COCCN1C(=O)c2oc3ccc(C)cc3c(=O)c2C1c1ccc(C(=O)OC)cc1 (configuration not stated),107,107
COc1ccc(Nc2c(-c3ccco3)nc3cccc(C)n23)cc1,106,115
CCOc1ccc(N(CC)C(=O)CCc2nc(-c3ccccc3F)no2)cc1,102,104
O=C(Cn1nc(-c2ccc(Cl)cc2)ccc1=O)NCc1ccccc1Cl,114,114
CN(C(=O)c1ccc2c(c1)N(Cc1cccc(Cl)c1)C(=O)c1ccccc1S2(=O)=O)C1CCCCC1,109,114

# Two entries from above, tab-delimited.
molecule	Polio RdRp inh	Polio RdRp inh intensity
Cc1ccc(Nc2cc(C)nc3nc(Cc4ccc(Cl)cc4)nn23)cc1	110	114
COc1ccc(C(=O)Nc2cccc(OCc3cc(=O)n4c5c(sc4n3)CCCC5)c2)cc1OC	98	102

# (next part)
SMILES,Polio RdRp inh,Polio RdRp inh intensity
CCOC(=O)c1cccc(NC(=O)Cn2ncc3c(=O)oc4ccccc4c32)c1,107,107
Cc1cccc(CNC(=O)Cn2ccc3cc(S(=O)(=O)N4CCCCCC4)ccc32)c1,109,110
CCOc1ccc(C(=O)Nc2cccc(NC(=O)c3ccc(C(C)(C)C)cc3)c2)cc1Br,105,108
Cc1ccc(Cl)cc1-n1c(=O)cc(N2CCN(c3ccccc3)CC2)[nH]c1=O,104,106
Cc1ccc(CNC(=O)c2cccc(Nc3nc4ccccc4n4nnnc34)c2)cc1,107,123

# In the list so far, these have an aryl thioether with sulfur outside any ring.
SMILES,Polio RdRp inh,Polio RdRp inh intensity
COc1ccc(C(C)=O)cc1CSc1nc(Nc2ccc(F)c(F)c2)c2ccccc2n1,108,114
CCC(Sc1nc2nccnc2c(=O)n1Cc1ccc(Cl)cc1)C(=O)NC1CCCCC1 (configuration not stated),108,104
CC(=O)Nc1nonc1-c1nnc(SCc2ccc(Cl)cc2)n1C,109,108
O=c1cc(-c2ccccc2)n2c(SCc3ccc(Br)cc3)nnc2[nH]1,103,94
COCCNC(=O)CCCn1c(SCc2ccccc2C)nc2c(sc3ccccc32)c1=O,107,108
CCOc1ccccc1NC(=O)CSc1nc2c(oc3ccccc32)c(=O)n1C(C)C,104,108
Cc1ccc(S(=O)(=O)c2nc(-c3cccs3)oc2SCC(=O)Nc2cc(C)cc(C)c2)cc1,104,106
COc1ccccc1-c1nnc(SCCOc2ccccc2C)o1,106,110
Cc1ccc(CNC(=O)CSc2ccc(-c3sc(-c4ccccc4)nc3C)nn2)cc1,103,99
Cc1cc(C)n2c(SCCC(C)C)nnc2n1,102,105
COc1cc(-c2nnc(SCCOc3ccccc3)o2)cc(OC)c1OC,106,106
CC(Sc1nc2c([nH]c3ccccc32)c(=O)n1-c1ccccc1)c1ccccc1 (configuration not stated),111,111
Cc1ccc(NC(=O)CSc2nnc(C)s2)c(C)c1,105,105
COc1ccc(OC)c(NC(=O)CSc2c3c(nc4cc(Cl)ccc24)CCCC3)c1,106,106
COc1ccc(CCNC(=O)CSc2ncc3c(n2)-c2cc(Cl)ccc2N(Cc2ccccc2)S3(=O)=O)cc1OC,107,112
